Screening results as filed in PubChem.
LANA-H2A inh: blocks KSHV LANA binding to histone H2A/H2B | Q9QR71 | cell-free LANA-H2A/H2B peptide, fluorescence polarization | inhibition, % (no concentration beside the values) | hit rate 0.6% among 320,000; in the data active = inhibition mostly above about 10%, no sharp cut-off; inactive = mostly below about 6.7%;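 also: stock transfer was 7.5 nL into about 10 µL; 0% = median of vehicle wells and 100% = median of positive control wells; one replicate is shown; the record names a cut of 25% in any replicate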
Beta2AR agonist: human beta-2 adrenergic receptor agonism by FAP | P07550 | Am2.2-beta2AR cells, FAP receptor internalization, flow cytometry; reference of the scale not given here | hit rate 0.43% among 340,000 | response, % (concentration not given with the values) | AID 504454;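 active = response above a set limit, near 3 SD of response in nonfluorescent compounds, cut at about 42% in these data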;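 also: stock transfer was 100 nL into about 11 µL; a reference agonist was the positive control; negative values mostly stem from fluorescent compounds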
Target sequence (P07550 whole entry, looked up): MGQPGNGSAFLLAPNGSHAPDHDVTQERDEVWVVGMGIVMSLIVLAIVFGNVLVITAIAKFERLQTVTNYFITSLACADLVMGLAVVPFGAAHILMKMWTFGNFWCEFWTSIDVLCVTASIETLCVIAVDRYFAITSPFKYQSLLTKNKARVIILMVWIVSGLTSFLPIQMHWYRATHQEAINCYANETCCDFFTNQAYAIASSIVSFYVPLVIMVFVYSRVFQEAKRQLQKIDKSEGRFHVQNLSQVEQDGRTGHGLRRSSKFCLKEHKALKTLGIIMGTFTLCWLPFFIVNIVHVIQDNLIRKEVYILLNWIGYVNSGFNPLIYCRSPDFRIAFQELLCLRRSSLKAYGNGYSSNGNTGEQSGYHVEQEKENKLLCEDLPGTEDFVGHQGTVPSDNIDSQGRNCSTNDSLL
ALR H2O2 inh: blocks human ALR sulfhydryl oxidase activity | P55789 | inhibition, % (concentration not given with the values) | hit rate 3.8% among 290,000 | purified ALR, DTT oxidation, H2O2 HRP-luminol luminescence;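 active = mean and each replicate at 75% or more; inconclusive = only one of the two met; inactive = neither met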;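 also: stock transfer was 7.5 nL into about 7.5 µL; 0% = neutral wells and 100% = wells with inactivated enzyme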
Target sequence (P55789 whole entry, looked up): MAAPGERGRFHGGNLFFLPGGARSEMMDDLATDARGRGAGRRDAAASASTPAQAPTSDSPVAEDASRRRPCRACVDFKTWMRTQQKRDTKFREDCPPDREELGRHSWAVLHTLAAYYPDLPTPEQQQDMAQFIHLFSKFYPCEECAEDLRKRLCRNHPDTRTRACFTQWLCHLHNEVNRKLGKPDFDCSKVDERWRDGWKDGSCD
UCH37 DUB inh: human UCH37 deubiquitinating enzyme inhibition; Q9Y5K5; purified proteasome/UCH37, Ub-AMC cleavage fluorescence; inhibition, % (test concentration not listed); hit rate 0.33% among 330,000;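 active = mean of two replicates above 20%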;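 also: 0% = compound-free wells with enzyme and 100% = wells lacking proteasome; stock transfer was 100 nL into about 20 µL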
Target sequence (Q9Y5K5 whole entry, looked up): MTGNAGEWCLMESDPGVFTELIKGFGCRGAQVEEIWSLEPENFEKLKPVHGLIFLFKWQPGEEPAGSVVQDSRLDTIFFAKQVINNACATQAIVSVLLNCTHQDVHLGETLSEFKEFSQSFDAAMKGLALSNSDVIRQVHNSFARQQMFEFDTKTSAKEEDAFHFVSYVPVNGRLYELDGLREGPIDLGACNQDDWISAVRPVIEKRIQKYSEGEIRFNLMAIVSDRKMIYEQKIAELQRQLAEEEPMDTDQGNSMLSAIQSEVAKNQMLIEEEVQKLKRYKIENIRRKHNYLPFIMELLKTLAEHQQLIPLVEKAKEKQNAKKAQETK
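Material: Human UCH37 enzyme supplied as purified proteasome complex | Schedule: 30 min compound-proteasome preincubation then 25 min substrate reaction, room temperature | Detection: AMC fluorescence from Ub-AMC cleavage, excitation 355 nm, emission 460 nm | Benchmarks: Wells without proteasome as full block, compound-free enzyme plus substrate as uninhibited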
HNF4A DNA FP: change in binding of human HNF4 alpha to DNA. P41235. HNF4a-FITC DNA binding, fluorescence polarization, 1 h. activity change, % at 10 µM. hit rate 0.3% among 360,000. AID 1224865; in the data active = activity change above about 30%, passing the limit was not always enough;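 also: controls were the assay level and a saturating level of protein; the project sought stronger binding though the title names inhibitors; some compounds called inactive have numbers as strong as hits; positive values seem to mean higher polarization but the record does not say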
Ecoli growth: E. coli growth inhibition; Escherichia coli growth, OD600, 23 h; hits give low values; OD600 absorbance (no concentration beside the values); AID 1053175; hit rate 0.21% among 330,000;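 active = OD600 absorbance below the run mean of sample wells minus 3.6 SD, in any replicate, cut at about 0.56 in these data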;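 also: stock transfer was 300 nL into about 60 µL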
FGF22 binding: binders of recombinant human FGF22 by thermal shift. Q9HCT0. SYPRO orange fluorescence; percent of sucrose octasulfate shift, DMSO zero. calls only at 9.99 µM. hit rate 1.5% among 340,000;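 active = melting point raised past a set limit in the mean and every replicate; inconclusive = no clear call; three in four hits are not shown here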
The depositor's hits bear a star. The list is partial; count on the stated rates, not on these rows.

`O=C(CSc1nnc(-c2ccco2)o1)N1c2ccccc2CCc2ccccc21` gave LANA-H2A inh -1.5, Beta2AR agonist -15, ALR H2O2 inh -4, UCH37 DUB inh 1.5, HNF4A DNA FP -2.5 and Ecoli growth 0.67.
`Cc1ccc(N(C)S(=O)(=O)c2cc(-c3cnc(C4CC4)o3)ccc2C)cc1` gave LANA-H2A inh 1.7, Beta2AR agonist 104*, ALR H2O2 inh 43, UCH37 DUB inh 1.6, HNF4A DNA FP 1.9, Ecoli growth 0.66 and FGF22 binding inactive.
`O=C(CN1C(=O)NC2(CCCC2)C1=O)NCCc1ccccc1` gave LANA-H2A inh 3.3, Beta2AR agonist -3, UCH37 DUB inh 1.2, HNF4A DNA FP -2.4, Ecoli growth 0.68 and FGF22 binding inactive.
COc1ccc(OC)c(-c2csc(NC(=O)CN3C(=O)NC4(CCCC4)C3=O)n2)c1 was read as LANA-H2A inh -8.1, Beta2AR agonist -1, ALR H2O2 inh 5, UCH37 DUB inh 0.5, HNF4A DNA FP -2.6, Ecoli growth 0.59 and FGF22 binding inactive.
For O=C(Nc1cc(=O)[nH]c2ncnn12)c1ccc(Cl)cc1Cl the results were LANA-H2A inh 4.7, Beta2AR agonist 5, ALR H2O2 inh -6, UCH37 DUB inh 1.5, HNF4A DNA FP 0.6 and Ecoli growth 0.71.
Screening Cc1noc(C)c1C(=O)OC(C)C(=O)Nc1ccc2c(c1)OCO2 (stereo unspecified) returned LANA-H2A inh -1.2, Beta2AR agonist 2, ALR H2O2 inh -1, HNF4A DNA FP -4.2 and FGF22 binding inactive.
For Cc1ccc(C)c(OCCC(=O)OCC(=O)c2ccc3c(c2)NC(=O)CO3)c1 the results were LANA-H2A inh -1.4, Beta2AR agonist 2, ALR H2O2 inh -3, UCH37 DUB inh 3.2, HNF4A DNA FP 2.8, Ecoli growth 0.67 and FGF22 binding inactive.
Cc1ccc(-n2ccnc(SCC(=O)NC3CCCCC3)c2=O)cc1F was read as Beta2AR agonist -1, UCH37 DUB inh -24, HNF4A DNA FP -1.8, Ecoli growth 0.68 and FGF22 binding inactive.
O=C(Cc1csc(NC(=O)Nc2ccc(Cl)cc2)n1)NC1CCCC1 was read as LANA-H2A inh -0.3, Beta2AR agonist 0, ALR H2O2 inh -1, UCH37 DUB inh -1.6, HNF4A DNA FP -1.0, Ecoli growth 0.61 and FGF22 binding inactive.
For CCOC(=O)C1CCN(Cc2ccc(N(C)C)cc2)CC1 the results were LANA-H2A inh 2.9, Beta2AR agonist -2, ALR H2O2 inh 99*, UCH37 DUB inh 1.6, HNF4A DNA FP 15 and Ecoli growth 0.69.
For Cc1nnc(Sc2cc(C(=O)NCCCOC(C)C)c3ccccc3n2)s1 the results were LANA-H2A inh -0.8, Beta2AR agonist 2, ALR H2O2 inh -5, UCH37 DUB inh 2.4, HNF4A DNA FP 2.8, Ecoli growth 0.7 and FGF22 binding inactive.
For CN(CCO)c1cc(N2CCCCC2)c2nonc2c1[N+](=O)[O-] the results were LANA-H2A inh -7.0, Beta2AR agonist -2, ALR H2O2 inh 1, UCH37 DUB inh 4.9, HNF4A DNA FP 12, Ecoli growth 0.72 and FGF22 binding inactive.
For O=C(Cc1cc(=O)[nH]c(=O)[nH]1)NCc1ccccc1 the results were LANA-H2A inh 0.7, Beta2AR agonist 3, ALR H2O2 inh -10, UCH37 DUB inh 1.8, HNF4A DNA FP 1.2, Ecoli growth 0.71 and FGF22 binding inactive.
O=C(c1ccccc1)C(Cn1cncn1)C(Sc1ccccc1)c1ccccc1 (stereo unspecified) was read as LANA-H2A inh 3.3, Beta2AR agonist 12, ALR H2O2 inh -8, UCH37 DUB inh 4.4, HNF4A DNA FP -1.8 and Ecoli growth 0.7.
For COc1cc(C=O)c(Cl)cc1OCC(N)=O the results were LANA-H2A inh -0.5, Beta2AR agonist 1, ALR H2O2 inh -3, UCH37 DUB inh -2.0, HNF4A DNA FP 0.2, Ecoli growth 0.7 and FGF22 binding inactive.
`O=C(CN1CCN(Cc2ccccc2)CC1)N1CCN(c2ccccc2)CC1` gave LANA-H2A inh 0.8, Beta2AR agonist -1, ALR H2O2 inh 38, UCH37 DUB inh 35, HNF4A DNA FP 4.9, Ecoli growth 0.6 and FGF22 binding inactive.
For O=C(Cc1cccc2ccccc12)N1CC[C@@]2(O)CCCC[C@H]2C1 the results were LANA-H2A inh 4.5, Beta2AR agonist -2, ALR H2O2 inh -7, UCH37 DUB inh 7.1, HNF4A DNA FP 3.0, Ecoli growth 0.65 and FGF22 binding inactive.
Screening COc1cccc(OC)c1C(=O)Nc1ccccc1N1CCCC1 returned LANA-H2A inh 1.5, Beta2AR agonist 5, ALR H2O2 inh inconclusive, UCH37 DUB inh 1.2, HNF4A DNA FP 2.0 and Ecoli growth 0.71.
Screening COc1cccc(NC(=O)c2ccc(NS(=O)(=O)c3cccs3)cc2)c1 returned Beta2AR agonist 12, UCH37 DUB inh 6.1, HNF4A DNA FP -1.4 and Ecoli growth 0.69.
Screening CCCN=C1N(C)C[C@@H]2[C@@H]3C(=O)N(Cc4ccccc4)C(=O)[C@@H]3[C@](Cc3ccccc3)(C(=O)OC)N12 returned Beta2AR agonist 4, UCH37 DUB inh 0.2, HNF4A DNA FP -4.3 and Ecoli growth 0.66.

Of the compounds above, 2 contain an NH in an aromatic ring:
For O=C(Nc1cc(=O)[nH]c2ncnn12)c1ccc(Cl)cc1Cl the results were LANA-H2A inh 4.7, Beta2AR agonist 5, ALR H2O2 inh -6, UCH37 DUB inh 1.5, HNF4A DNA FP 0.6 and Ecoli growth 0.71.
For O=C(Cc1cc(=O)[nH]c(=O)[nH]1)NCc1ccccc1 the results were LANA-H2A inh 0.7, Beta2AR agonist 3, ALR H2O2 inh -10, UCH37 DUB inh 1.8, HNF4A DNA FP 1.2, Ecoli growth 0.71 and FGF22 binding inactive.

Further structures:
For COc1cccc2c1Oc1ncccc1N(C(=O)CCC(=O)NCc1cccc(C)c1)C2 the results were LANA-H2A inh 4.6, Beta2AR agonist 5, ALR H2O2 inh 0, UCH37 DUB inh 2.1, HNF4A DNA FP 2.0, Ecoli growth 0.71 and FGF22 binding inactive.
`CC(=O)c1cccc(NC(=O)C2CCN(S(=O)(=O)c3ccccc3)CC2)c1` gave LANA-H2A inh -2.5, Beta2AR agonist 3, ALR H2O2 inh -11, UCH37 DUB inh -0.2, HNF4A DNA FP 0.0 and Ecoli growth 0.65.
Screening CCC(=O)NC(C)c1nc2ccccc2n1C (stereo unspecified) returned LANA-H2A inh -7.1, Beta2AR agonist 0, ALR H2O2 inh 2, UCH37 DUB inh -0.4, HNF4A DNA FP -0.7 and Ecoli growth 0.7.
Screening COc1cc2c3nnc(-c4ccc(F)cc4)c-3cn(Cc3cccc(C)c3)c2cc1OC returned LANA-H2A inh -6.3, Beta2AR agonist -1, UCH37 DUB inh -71, HNF4A DNA FP 13, Ecoli growth 0.72 and FGF22 binding inactive.
COc1ccc(C(=O)N/C(=C\c2cn(S(=O)(=O)N(C)C)c3ccccc23)C(=O)N2CCOCC2)cc1 was read as LANA-H2A inh 2.9, Beta2AR agonist -15, ALR H2O2 inh 0, UCH37 DUB inh 2.7, HNF4A DNA FP 2.3, Ecoli growth 0.67 and FGF22 binding inactive.
CC(=O)Nc1ccc(NC(=O)c2nc(-c3ccccc3)oc2C)cc1 was read as LANA-H2A inh 1.1, Beta2AR agonist 2, ALR H2O2 inh -3, UCH37 DUB inh -2.4, HNF4A DNA FP -3.5, Ecoli growth 0.62 and FGF22 binding inactive.
`C=CCC(CC=C)(NC(=O)c1ccccc1)c1ccccc1` gave LANA-H2A inh 2.0, Beta2AR agonist 9, ALR H2O2 inh 0, UCH37 DUB inh 4.0, HNF4A DNA FP 2.6 and Ecoli growth 0.7.
`Cc1cccc(NC(=O)CSCc2cc(=O)n3ccsc3n2)c1C` gave LANA-H2A inh 0.8, Beta2AR agonist -1, ALR H2O2 inh -13, UCH37 DUB inh 1.2, HNF4A DNA FP -1.4 and Ecoli growth 0.64.
Screening CCNC(=S)N1CCN(S(=O)(=O)c2ccc(C)c(C)c2)CC1 returned LANA-H2A inh -0.8, Beta2AR agonist -6, ALR H2O2 inh -4, UCH37 DUB inh 1.8, HNF4A DNA FP 0.2, Ecoli growth 0.7 and FGF22 binding inactive.
For Cc1nn(C)c(Cl)c1C(N)=O the results were LANA-H2A inh 2.4, Beta2AR agonist 19, ALR H2O2 inh -3, UCH37 DUB inh -0.2, HNF4A DNA FP -2.4, Ecoli growth 0.6 and FGF22 binding inactive.
Screening COc1cc2c(cc1OC)C(C)N(S(=O)(=O)c1ccc(Cl)nc1)CC2 (stereo unspecified) returned LANA-H2A inh 5.5, Beta2AR agonist -6, ALR H2O2 inh 0, UCH37 DUB inh -0.3, HNF4A DNA FP 1.4, Ecoli growth 0.7 and FGF22 binding inactive.
O=C1C(=O)N(c2ccccn2)C(c2cccc(F)c2)/C1=C(/O)c1ccccc1 (stereo unspecified) was read as LANA-H2A inh 11, Beta2AR agonist 3, ALR H2O2 inh 5, UCH37 DUB inh 6.7, HNF4A DNA FP 3.8 and Ecoli growth 0.67.
Screening CCc1ccc(NC(=O)C2CCCN(S(C)(=O)=O)C2)cc1 (stereo unspecified) returned LANA-H2A inh 3.5, Beta2AR agonist 0, ALR H2O2 inh 0, UCH37 DUB inh 1.7, HNF4A DNA FP -2.2, Ecoli growth 0.66 and FGF22 binding inactive.
C/C(=N\NC(N)=S)C12CC3CC(CC(C3)C1)C2 was read as LANA-H2A inh 1.0, Beta2AR agonist -15, ALR H2O2 inh 2 and HNF4A DNA FP 1.2.
`CNc1cc(N2CCN(S(=O)(=O)N(C)C)CC2)ccc1[N+](=O)[O-]` gave LANA-H2A inh -0.3, Beta2AR agonist -3, ALR H2O2 inh -9, UCH37 DUB inh 11, HNF4A DNA FP 4.6 and Ecoli growth 0.68.
COc1ccc(NC(=O)c2ccc(NCC3CCCO3)c([N+](=O)[O-])c2)cc1 (stereo unspecified) was read as LANA-H2A inh -7.2, Beta2AR agonist -7, ALR H2O2 inh -4, UCH37 DUB inh 1.5, HNF4A DNA FP -0.3, Ecoli growth 0.65 and FGF22 binding inactive.
Screening COc1ccc(N2C(=O)C3C(c4ccc(C(=O)O)cc4)NC(Cc4ccccc4)(C(=O)O)C3C2=O)c([N+](=O)[O-])c1 (stereo unspecified) returned LANA-H2A inh -2.8, Beta2AR agonist -3, ALR H2O2 inh 23, UCH37 DUB inh 2.8, HNF4A DNA FP 2.8, Ecoli growth 0.66 and FGF22 binding inactive.
`CCOC(=O)N1CCC(Nc2c(NCCCN(C)Cc3ccccc3)c(=O)c2=O)CC1` gave LANA-H2A inh 0.1, Beta2AR agonist 3, ALR H2O2 inh -3, UCH37 DUB inh 8.1, HNF4A DNA FP 1.0, Ecoli growth 0.7 and FGF22 binding inactive.
Screening Cc1ccc(NC(=O)C2CC(=O)N(C(C)c3ccccc3)C2)cc1 (stereo unspecified) returned LANA-H2A inh -169, Beta2AR agonist -3, ALR H2O2 inh -3, UCH37 DUB inh 1.9, HNF4A DNA FP 0.5, Ecoli growth 0.67 and FGF22 binding inactive.
O=C(Nc1ccc(Cl)cc1Cl)NC1CCN(S(=O)(=O)c2ccc(F)cc2)CC1 was read as LANA-H2A inh -5.7, Beta2AR agonist 17, ALR H2O2 inh -6, UCH37 DUB inh 4.1, HNF4A DNA FP -3.0, Ecoli growth 0.7 and FGF22 binding inactive.
`c1coc(CN=C2NC(=NCc3ccco3)c3ccccc32)c1` gave LANA-H2A inh -4.7, Beta2AR agonist -2, ALR H2O2 inh -7, UCH37 DUB inh 1.0, HNF4A DNA FP 13 and Ecoli growth 0.72.
Screening Cc1ccc(-n2nnnc2SCC(=O)Nc2ccc(N3CCN(C)CC3)cc2)c(C)c1 returned LANA-H2A inh -8.1, Beta2AR agonist 7, ALR H2O2 inh 2, UCH37 DUB inh 3.5, HNF4A DNA FP -4.8, Ecoli growth 0.69 and FGF22 binding inactive.
